# NOMO-1 viab: STK33 inhibitor candidate reducing NOMO-1 cell viability. NOMO-1 AML viability, CellTiter-Glo luminescence, 72 h. inhibition, % (no concentration beside the values). 37,000 compounds, 7.5% hits. AID 2330;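 active = most replicates above 80%; inconclusive = exactly half above 80%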;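 also: wells of about 30 µL received 25 nL stock; 0% = median of vehicle wells and 100% = reference inhibitor level; the first replicate is given; inactives centre near 10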
# * marks the source's active call; other numbers are inactive results; ? = inconclusive. These rows are one share of the data (hit frequency here may not be typical).
smiles	NOMO-1 viab
CNC[C@H]1Oc2ccc(NS(=O)(=O)c3cccs3)cc2C(=O)N([C@H](C)CO)C[C@H]1C	9
c1ccc2sc(N3CCN(Cc4ccc5c(c4)OCO5)CC3)nc2c1	28
COc1ccc(CCc2cc(OC)cc(=O)o2)cc1	-8
C[C@@H]1CCCCO[C@@H](CN(C)CC2CC2)[C@@H](C)CN([C@H](C)CO)C(=O)c2cc(NC(=O)c3ccncc3)ccc2O1	-5
Cc1ccc(Cn2nc(C)cc2C(=O)Sc2ccccc2)cc1	92*
C[C@H](CO)N1C[C@H](C)[C@H](CN(C)S(=O)(=O)c2ccc(Cl)cc2)Oc2ccc(NC(=O)CCN3CCOCC3)cc2C1=O	17
COc1ccc(CN(C)C[C@H]2Oc3ccc(NC(=O)Nc4c(C)noc4C)cc3C(=O)N([C@H](C)CO)C[C@@H]2C)cc1	-6
COc1ccc(C)cc1S(=O)(=O)N(C)CC(=O)Nc1ccccc1C(F)(F)F	27
COc1ccc(C(c2cn(C)c3ccccc23)c2cn(C)c3ccccc23)c(OC)c1OC	47
Cc1noc(C)c1S(=O)(=O)Nc1cccc2c1O[C@H](CN(C)C(=O)Nc1ccc(C(F)(F)F)cc1)[C@H](C)CN([C@@H](C)CO)C2=O	55
C[C@@H]1CN([C@@H](C)CO)C(=O)c2cccc(NS(=O)(=O)c3ccccc3)c2O[C@H]1CN(C)S(=O)(=O)c1ccccc1	-3
C[C@@H]1CN([C@@H](C)CO)C(=O)c2cccc(NC(=O)Nc3ccccc3)c2O[C@H]1CN(C)S(=O)(=O)c1ccc(Cl)cc1	-9
COc1ccc(CN2CCN(C(=O)c3cc(-c4cccnc4)nc4ccc(Cl)cc34)CC2)c(OC)c1OC	28
C[C@H]1CN([C@@H](C)CO)C(=O)c2cc(NC(=O)CCN3CCOCC3)ccc2O[C@@H]1CN(C)Cc1ccccc1	13
C[C@H](CO)N1C[C@H](C)[C@H](CN(C)S(=O)(=O)c2cn(C)cn2)Oc2ccc(NC(=O)C3CCCCC3)cc2C1=O	-8
COc1ccc(S(=O)(=O)N(C)C[C@@H]2Oc3ccc(NC(=O)Cc4ccccc4)cc3CC(=O)N([C@@H](C)CO)C[C@@H]2C)cc1	28
C[C@@H]1CN([C@@H](C)CO)C(=O)c2cc(NC(=O)CCC(F)(F)F)ccc2O[C@H]1CN(C)CC1CC1	-3
CN1CCCC(CC2c3ccccc3Sc3ccccc32)C1 (configuration not stated)	50
COc1ccc(S(=O)(=O)N(C)C[C@@H]2OCCCC[C@@H](C)Oc3ccc(NC(=O)CCC(F)(F)F)cc3C(=O)N([C@H](C)CO)C[C@@H]2C)cc1	14
CC1=C(C(=O)Nc2ccccc2)C(c2ccccc2)NC(=O)N1 (configuration not stated)	12
C[C@H]1CN([C@@H](C)CO)C(=O)c2cc(NS(C)(=O)=O)ccc2O[C@@H]1CN(C)C(=O)Nc1ccc(C(F)(F)F)cc1	6
COc1ccccc1NC(=S)NCc1ccc(S(N)(=O)=O)cc1	-7
CCSc1nc2ccccc2n1C(CC(=O)O)C(=O)O (configuration not stated)	12
C[C@@H]1CCCCO[C@@H](CN(C)Cc2ccc(C(=O)O)cc2)[C@@H](C)CN([C@H](C)CO)C(=O)c2cc(NS(=O)(=O)c3ccc(F)cc3)ccc2O1	-16
C[C@@H]1CCCCO[C@@H](CN(C)Cc2ccc(C(=O)Nc3ccccc3N)cc2)[C@@H](C)CN([C@H](C)CO)C(=O)c2cc(NC(=O)CCC(F)(F)F)ccc2O1	127*
Nc1nnc(SCc2cccnc2)s1	0
C[C@@H]1CN([C@H](C)CO)C(=O)c2cccc(NC(=O)C3CCOCC3)c2O[C@H]1CN(C)C(=O)Nc1ccccc1	-1
C[C@@H]1CN([C@H](C)CO)C(=O)Cc2cc(NC(=O)C3CCCCC3)ccc2O[C@@H]1CN(C)Cc1ccc(C(=O)O)cc1	-1
CCCc1ccc(-c2cc(C(=O)NCc3cccnc3)c3ccccc3n2)cc1	46
Cn1nnc2cc(NC(=O)NCc3ccco3)ccc21	13
C[C@H](CO)N1C[C@H](C)[C@@H](CN(C)C(=O)Nc2ccc(C(F)(F)F)cc2)Oc2c(NC(=O)c3ccncc3)cccc2C1=O	32
C[C@@H]1CN([C@@H](C)CO)C(=O)c2cc(NS(=O)(=O)c3ccc(F)cc3)ccc2O[C@@H]1CN(C)C(=O)Nc1ccccc1	3
CC(=O)Nc1ccccc1NC(=O)COc1ccc(Cl)c(C)c1	21
Cc1cc(Cl)cc(Br)c1OCCCNCC(C)O (configuration not stated)	31
COc1cc(NC(=O)C(C)Oc2ccc(Cl)cc2C)c(C(=O)O)cc1OC (configuration not stated)	9
C[C@@H]1CN([C@H](C)CO)C(=O)c2cc(NC(=O)NC3CCCCC3)ccc2O[C@@H]1CN(C)C(=O)Nc1ccc2c(c1)OCO2	-3
Cc1ccc(NC(=O)CSc2nncn2C)c(C)c1	-5
COc1cc(O)c2c(=O)c(OC3OC(CO[C@@H]4O[C@@H](C)[C@H](O)[C@@H](O[C@@H]5O[C@@H](C)[C@H](O)[C@@H](O)[C@H]5O)[C@H]4O)C(O)C(O)C3O)c(-c3ccc(O)cc3)oc2c1 (some centres not stated)	-12
Cc1cnc(SCc2cnc(C)nc2N)nc1	0
COc1ccc(S(=O)(=O)Nc2cccc3c2O[C@H](CN(C)C(=O)Nc2ccccc2)[C@H](C)CN([C@@H](C)CO)C3=O)cc1	14
Cc1ccc(S(=O)(=O)Nc2cccc3c2O[C@@H](CN(C)C(=O)NC(C)C)[C@@H](C)CN([C@H](C)CO)C3=O)cc1	25
C[C@@H]1CN([C@@H](C)CO)C(=O)c2cccc(NS(C)(=O)=O)c2O[C@H]1CN(C)C(=O)Nc1ccc(F)cc1	7
Cc1ccc(OCC(=O)Nc2ccccc2N2CCOCC2)cc1	-9
C[C@H]1CN([C@@H](C)CO)C(=O)Cc2cc(NC(=O)Nc3ccc4c(c3)OCO4)ccc2O[C@H]1CN(C)Cc1ccc(Cl)c(Cl)c1	113*
CN(C)CC#CC1(O)CCCCC1	15
O=[N+]([O-])c1cccc(S(=O)(=O)NCCOc2cccc(Cl)c2Cl)c1	-10
Cc1ccc(-c2nn(CC(=O)Nc3ccc(C)cc3C)c(=O)c3ccccc23)cc1	111*
C[C@H](CO)N1C[C@H](C)[C@H](CN(C)Cc2ccc(-c3ccccc3)cc2)Oc2c(NC(=O)C3CCCCC3)cccc2C1=O	119*
Cc1noc(C)c1NC(=O)Nc1cccc2c1O[C@@H](CN(C)S(=O)(=O)c1ccccc1)[C@@H](C)CN([C@H](C)CO)C2=O	15
C[C@H](CO)N1C[C@H](C)[C@H](CN(C)C(=O)Nc2ccc(F)cc2)Oc2c(NC(=O)C3CC3)cccc2C1=O	-1
C[C@@H]1CN([C@H](C)CO)C(=O)c2cc(NC(=O)CCCN(C)C)ccc2O[C@H]1CN(C)C(=O)Nc1ccc2c(c1)OCO2	-7
C[C@H]1CN([C@@H](C)CO)C(=O)c2cccc(NC(=O)NC3CCCCC3)c2O[C@H]1CN(C)Cc1ccc(Cl)c(Cl)c1	40
COc1ccc(NC(=O)C(C)Oc2ccccc2C)c([N+](=O)[O-])c1 (configuration not stated)	14
COc1ccc(OC)c(S(=O)(=O)N(C)CC(=O)N2CCCC2)c1	4
N/C(Cc1nc(-c2ccc(Cl)cc2)cs1)=N\O	-10
COc1ccccc1NC(=O)c1cnc(Nc2nc3ccccc3s2)nc1C	12
C[C@H]1CN([C@@H](C)CO)C(=O)Cc2cc(NC(=O)Nc3cccc4ccccc34)ccc2O[C@@H]1CN(C)S(=O)(=O)c1ccc(Cl)cc1	21
CCOC(=O)c1sc(NC(=O)CSc2nc(C)cc(C(F)(F)F)n2)c(C#N)c1C	37
O=S(=O)(Nc1ncccn1)c1ccc(NS(=O)(=O)c2cc(Cl)ccc2Cl)cc1	15
CCc1nc(CNC(=O)c2cc(OC)c(OC)c(OC)c2)no1	-6

# Continuation:
smiles	NOMO-1 viab
CCOc1ccc(NC(=O)Cn2cc([N+](=O)[O-])cn2)cc1	-14
Cn1c(SCC(=O)Nc2ccccc2)nc2sc3c(c2c1=O)CCC3	20
O=C(N1CCCc2ccccc21)C(F)(F)F	-6
CCn1c(SCC(=O)Nc2cc(Cl)ccc2Cl)nnc1-c1ccc(Cl)cc1	-29
Cc1cccc(NC(=O)c2cc(NC(=O)CCC(=O)O)ccc2N2CCOCC2)c1	-6
COC(=O)c1sc(NC(=S)Nc2c(C)nn(Cc3c(F)c(F)c(F)c(F)c3F)c2C)c(C(=O)OC)c1C	11
COc1ccc(NC(=O)N(C)C[C@@H]2Oc3c(NS(=O)(=O)c4ccc(C)cc4)cccc3C(=O)N([C@H](C)CO)C[C@H]2C)cc1	17
COc1ccc(NC(=O)Nc2ccc3c(c2)CC(=O)N([C@H](C)CO)C[C@H](C)[C@H](CN(C)S(=O)(=O)c2cccs2)O3)cc1	20
O=C(O)c1cccc(S(=O)(=O)NCC2CCCO2)c1 (configuration not stated)	13
O=C(O)c1cc2ncc(CCO)cn2n1	14
COC(=O)c1ccccc1NC(=O)CN1C(=O)c2cccc3cccc1c23	-1
CC(C)N(Cc1nc(-c2ccccc2)no1)C(=O)c1ccc(Br)o1	52
C[C@@H]1CN([C@H](C)CO)C(=O)c2cc(NC(=O)Nc3ccc(F)cc3)ccc2O[C@@H]1CN(C)C	8
C[C@H]1CN([C@@H](C)CO)C(=O)c2cc(NC(=O)CCC(F)(F)F)ccc2O[C@@H]1CN(C)S(=O)(=O)c1ccc(Cl)cc1	-5
O=C(NC(=O)c1cnccc1C(F)(F)F)Nc1ccc(Cl)cc1Cl	-1
Cc1cc(Cn2ccc(C(F)(F)F)n2)c(C)c(-c2c(C#N)c(N)nc3c2CCCC3)c1	30
Cc1ccc(S(=O)(=O)Nc2ccc3c(c2)OCCO3)c(C)c1NS(C)(=O)=O	10
C[C@H]1CN([C@@H](C)CO)C(=O)c2cccc(NS(C)(=O)=O)c2O[C@H]1CN(C)C(=O)Nc1cccc2ccccc12	-7
Cc1ccc(S(=O)(=O)Nc2ccc3c(c2)CC(=O)N([C@@H](C)CO)C[C@@H](C)[C@@H](CN(C)S(=O)(=O)c2ccccc2)O3)cc1	6
C[C@H]1CN([C@@H](C)CO)C(=O)c2cc(NC(=O)Nc3cccc4ccccc34)ccc2O[C@@H]1CN(C)S(=O)(=O)c1ccc(Cl)cc1	34
C[C@@H]1CN([C@@H](C)CO)C(=O)c2cc(NC(=O)Nc3ccc4c(c3)OCO4)ccc2O[C@H]1CN(C)Cc1ccc(-c2ccccc2)cc1	116*
Cc1cc(Sc2ccc(Cl)cc2)nc(-c2ccccn2)n1	?
COc1ccc(C(=O)Nn2c(C)nnc2-n2nc(C)cc2C)cc1OC	10
O=C(O)c1cc(C23CC4CC(CC(C4)C2)C3)nc2ccc(Br)cc12	24
C=C1C(=O)O[C@H]2C1CCC(=C)[C@@H]1C[C@H](OC(=O)C=C(C)C)C(=C)[C@@H]12 (some centres not stated)	96*
CC(C)NC(=O)Nc1ccc2c(c1)CC(=O)N([C@H](C)CO)C[C@H](C)[C@H](CN(C)S(=O)(=O)c1ccc(Cl)cc1)O2	24
Cc1ccc(S(=O)(=O)N(C)C[C@@H]2Oc3ccc(NC(=O)Nc4ccc(C(F)(F)F)cc4)cc3CC(=O)N([C@H](C)CO)C[C@H]2C)cc1	66
CC(C(=O)Nc1ccc(Cl)c(Cl)c1)N(c1ccccc1)S(C)(=O)=O (configuration not stated)	7
COc1cc(NC(=O)CSc2nncn2C)cc(OC)c1OC	-27
C[C@@H]1CN([C@@H](C)CO)C(=O)c2cc(NS(=O)(=O)c3cn(C)cn3)ccc2O[C@@H]1CN(C)Cc1ccc(C(=O)Nc2ccccc2N)cc1	5

# Rewritten field by field: entries from further up
COc1ccc(NC(=O)Nc2ccc3c(c2)CC(=O)N([C@H](C)CO)C[C@H](C)[C@H](CN(C)S(=O)(=O)c2cccs2)O3)cc1
  NOMO-1 viab: 20

O=C(O)c1cccc(S(=O)(=O)NCC2CCCO2)c1 (configuration not stated)
  NOMO-1 viab: 13

O=C(O)c1cc2ncc(CCO)cn2n1
  NOMO-1 viab: 14

COC(=O)c1ccccc1NC(=O)CN1C(=O)c2cccc3cccc1c23
  NOMO-1 viab: -1

# Following part.
smiles	NOMO-1 viab
Cc1cc(-c2ccccc2)nc2oc3c(c12)NC(=O)CN(c1ccccc1)C3=O	-2
C[C@H]1CN([C@@H](C)CO)C(=O)Cc2cc(NC(=O)Nc3ccc(C(F)(F)F)cc3)ccc2O[C@@H]1CN(C)S(=O)(=O)c1ccc(Cl)cc1	105*
O=C(CSc1nnnn1C1CC2CCC1C2)Nc1ccnc2ccccc12 (configuration not stated)	54
C=C(C)C(=O)O[C@H]1[C@H]2C(=C)C(=O)O[C@@H]2C[C@@H](C)[C@@H]2O[C@@H]2C(=O)[C@](C)(O)[C@@H]1OC(=O)C(=C)C	119*
C[C@H]1CN([C@@H](C)CO)C(=O)c2cc(NC(=O)Cc3cn(C)c4ccccc34)ccc2O[C@@H]1CN(C)C(=O)Nc1ccc(F)cc1	15

# Grouped by structure, the entries above containing a cyano group.
smiles	NOMO-1 viab
CCOC(=O)c1sc(NC(=O)CSc2nc(C)cc(C(F)(F)F)n2)c(C#N)c1C	37
Cc1cc(Cn2ccc(C(F)(F)F)n2)c(C)c(-c2c(C#N)c(N)nc3c2CCCC3)c1	30
